AF4-AF9 inh: blocks AF4 peptide binding to human AF9; P42568; AlphaScreen, biotin-AF4 peptide binding to FLAG-AF9; inhibition, % at 10 µM; 350,000 tested, 0.47% active; AID 651704;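 active = every replicate reaching a set inhibition limit, whatever the replicate mean, cut at about 25% in these data; inconclusive = mean inhibition reaches that limit but some replicates miss it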;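 also: 0% = plate neutral control median and 100% = total signal loss; the record names both 10 and 1 µM as test concentration; the first replicate is given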
Target sequence (P42568 whole entry, looked up): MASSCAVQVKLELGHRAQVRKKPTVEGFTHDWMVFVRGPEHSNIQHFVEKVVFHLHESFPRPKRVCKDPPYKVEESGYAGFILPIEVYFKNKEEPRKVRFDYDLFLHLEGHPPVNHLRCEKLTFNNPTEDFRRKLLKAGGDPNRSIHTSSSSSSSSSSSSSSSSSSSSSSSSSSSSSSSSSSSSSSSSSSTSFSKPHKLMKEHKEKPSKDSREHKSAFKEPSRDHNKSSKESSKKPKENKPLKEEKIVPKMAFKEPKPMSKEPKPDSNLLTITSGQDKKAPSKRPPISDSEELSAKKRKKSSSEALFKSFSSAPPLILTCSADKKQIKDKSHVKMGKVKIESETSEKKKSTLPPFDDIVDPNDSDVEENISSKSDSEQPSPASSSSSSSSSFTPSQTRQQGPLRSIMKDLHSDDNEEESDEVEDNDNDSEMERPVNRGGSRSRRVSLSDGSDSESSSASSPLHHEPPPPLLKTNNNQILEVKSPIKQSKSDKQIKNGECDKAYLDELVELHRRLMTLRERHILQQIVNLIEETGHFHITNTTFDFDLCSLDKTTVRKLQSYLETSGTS
rRNA inh HTS: inhibitors of bacterial rRNA selective over humanized ribosomes. AID 720706. E. coli WT GFP vs humanized-ribosome RFP mutants, fluorescence, 24 h; active compounds read low; DMSO median 0, no signal -100. GFP signal change (wild-type ribosome), % (no concentration beside the values). 350,000 tested, 1.6% active;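 active = significant combined selectivity score with lowered wild-type GFP, culture density cut under 30%, mutant RFP and density less affected; inactive = any of these conditions unmet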; also: one replicate is shown; some compounds called inactive have numbers as strong as hits
FGF22 binding: FGF22 (human) thermal shift binding; calls only at 9.99 µM; recombinant FGF22 thermal shift, SYPRO orange fluorescence; percent of sucrose octasulfate shift, DMSO zero; 340,000 tested, 1.5% active; Q9HCT0;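 active = melting point raised past a set limit in the mean and every replicate; inconclusive = no clear call; three in four hits are not shown here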
Target sequence (Q9HCT0 whole entry, looked up): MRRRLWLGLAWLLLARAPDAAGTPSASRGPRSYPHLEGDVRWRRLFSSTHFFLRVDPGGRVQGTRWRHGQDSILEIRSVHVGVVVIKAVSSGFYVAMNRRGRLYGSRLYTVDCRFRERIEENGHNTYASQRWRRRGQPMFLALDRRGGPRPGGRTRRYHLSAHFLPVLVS
rRNA inh HTS OD600: recorded beside rRNA inh HTS, whose call it bears; OD600 change, %; measured here: OD600 growth;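 optical density of the mix in the first replicate; 0 = DMSO median and -100 = no signal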
rRNA inh HTS RFP: also measured in rRNA inh HTS; calls as there; RFP signal change, %; measured here: RFP humanized mutant strains;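 first replicate; 0 = DMSO median and -100 = no signal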
* = called active by the depositor; i = inactive; ? = inconclusive; + = active, no number. Not all compounds are listed. The share of hits here may be higher or lower than overall.

Compound | AF4-AF9 inh | rRNA inh HTS | rRNA inh HTS OD600 | rRNA inh HTS RFP | FGF22 binding
CO[C@H]1CC[C@H]2CCOc3c(C#N)cccc3C(=O)N(C)C[C@@H](OC)[C@H](C)C(=O)N(C)C[C@@H]1O2 | -0.4 | -1 | -2 | -1.2 | i
CC(=O)c1ccc(OCC(=O)OCC(=O)c2ccc(S(=O)(=O)N3CCCCC3)cc2)cc1 | -24 | 13 | 25 | 0.8 | i
O=C(NC1CCCC1)N1CCCCN2[C@H](CO)[C@H](c3ccc(-c4cccnc4)cc3)[C@@H]2C1 | -2.5 | -1 | -8 | 2.3 | i
CCCc1nc2ccc(C(=O)OC)cn2c1Cc1ccccc1OC | 0.7 | 2 | 4 | 2.6 | i
CN(C)C(=O)C[C@@H]1C=C[C@@H](NS(=O)(=O)c2ccccc2)[C@H](CO)O1 | -1.2 | 1 | 2 | -1.8 | i
CC(C)CC#Cc1cnc2c(c1)C(=O)N([C@H](C)CO)C[C@H](C)[C@H](CN(C)C(=O)C1CCOCC1)O2 | -2.7 | 5 | 8 | -3.4 | i
COc1ccc(S(=O)(=O)N(C)C[C@H]2Oc3ccc(NS(=O)(=O)c4ccc(C)cc4)cc3C(=O)N([C@H](C)CO)C[C@H]2C)cc1 | 0.6 | -4 | -2 | 1.5 | i
CCCNC(=O)N1CC2(CN(CC3CC3)C2)c2c(n(C)c3cc(OC)ccc23)[C@@H]1CO | 12 | 1 | -4 | -0.7 | i
C[C@@H]1CN([C@@H](C)CO)C(=O)Cc2cc(N(C)C)ccc2O[C@@H]1CN(C)Cc1ccc2c(c1)OCO2 | 6.2 | 1 | -3 | -1.1 | i
CNC(=O)C[C@@H]1C(=O)N(c2ccc(Br)cc2)CC1(C)C | -2.4 | -4 | 3 | 0.1 | i
C[C@@H]1CCCCO[C@@H](CN(C)Cc2ccc(Cl)c(Cl)c2)[C@@H](C)CN([C@H](C)CO)C(=O)c2cc(NC(=O)Nc3ccc4c(c3)OCO4)ccc2O1 | -7.4 | 5 | 4 | 1.4 | i
C[C@@H]1CCCCO[C@@H](CN(C)S(=O)(=O)c2ccc(F)cc2)[C@H](C)CN([C@@H](C)CO)C(=O)c2cc(NC(=O)CCC(F)(F)F)ccc2O1 | -5.8 | -1 | -4 | 1.0 | i
COCC(=O)N(C)C[C@@H]1Oc2ncc(-c3ccccc3OC)cc2C(=O)N([C@H](C)CO)C[C@H]1C | -14 | 0 | -1 | -1.6 | i
CNC[C@@H]1OCCCC[C@@H](C)Oc2ccc(NC(=O)Nc3ccc(C(F)(F)F)cc3)cc2C(=O)N([C@@H](C)CO)C[C@@H]1C | 1.8 | -52 | -76 | -8.0 | i
C/C=C/c1cnc2c(c1)C(=O)N([C@@H](C)CO)C[C@H](C)[C@H](CN(C)C(=O)Cc1ccccc1)O2 | -2.1 | 5 | 6 | -0.1 | i
C[C@@H]1CCCCO[C@H](CN(C)CC2CCCCC2)[C@@H](C)CN([C@H](C)CO)C(=O)c2cc(NC(=O)c3ccccc3)ccc2O1 | 4.9 | 4 | 5 | 2.2 | i
CCNC(=O)C[C@@H]1CC[C@H]2[C@@H](COC[C@@H](O)CN2C(=O)Nc2ccc(C(F)(F)F)cc2)O1 | -6.7 | -57 | -80 | -17 | i
CCCC(=O)N1CCC1(C)C(=O)NS(=O)(=O)c1ccc(F)cc1F (centres undefined) | 1.9 | 14 | 20 | 2.2 | i
CCCNC(=O)N(C)C[C@@H]1Oc2cc(C3=CCCC3)ccc2S(=O)(=O)N([C@H](C)CO)C[C@H]1C | -1.5 | -1 | -20 | 1.0 | i
C[C@@H]1CN([C@H](C)CO)C(=O)c2cc(/C=C/c3ccccc3)cnc2O[C@@H]1CN(C)C(=O)C1CCC1 | 1.9 | -1 | 13 | -0.8 | i
COc1ccc(S(=O)(=O)N(C)C[C@@H]2Oc3ccc(NC(=O)CCN4CCOCC4)cc3CC(=O)N([C@@H](C)CO)C[C@H]2C)cc1 | -0.6 | -1 | 1 | -1.7 | i
CCOC(=O)C(=O)N(C)c1c(CC)nc2c(OCc3ccc(OC(F)F)cc3)cccn12 | 2.9 | 2 | -8 | 3.4 | i
C[C@H](NC(=O)C[C@@H]1CC[C@@H](NC(=O)C2CCOCC2)[C@@H](CO)O1)c1ccccc1 | -2.3 | 1 | 3 | -0.3 | i
C[C@H]1CN([C@@H](C)CO)C(=O)c2cc(NC(=O)Cn3cnnn3)ccc2O[C@@H]1CN(C)C(=O)Nc1ccc2c(c1)OCO2 | -11 | 3 | -2 | -0.4 | i

(more compounds)
Values run as follows: AF4-AF9 inh	rRNA inh HTS	rRNA inh HTS OD600	rRNA inh HTS RFP	FGF22 binding
C[C@@H]1CN([C@H](C)CO)C(=O)Cc2cc(NC(=O)C3CCCCC3)ccc2O[C@@H]1CN(C)Cc1ccc(C(=O)Nc2ccccc2N)cc1
    -2.1	-4	-4	0.4	i
C[C@H]1CN([C@@H](C)CO)C(=O)Cc2cc(NC(=O)C3CCCCC3)ccc2O[C@@H]1CN(C)Cc1ccccc1
    0.4	-4	-2	5.0	i
CCCc1cn(CC[C@@H]2CC[C@@H](NC(=O)C3CCOCC3)[C@@H](CO)O2)nn1
    -1.8	0	5	-1.0	i
O=C(NCC[C@H]1CC[C@@H](NC(=O)c2ccccc2F)[C@H](CO)O1)c1cnccn1
    0.1	-1	-2	2.1	i
CCC(=O)Nc1ccc2c(c1)C(=O)N(C)C[C@H](OC)[C@@H](C)CN(Cc1ccccc1F)[C@@H](C)CO2
    6.1	-3	-19	2.5	i
CCC1(C2C=COC=C2)NC(=O)NC1=O (centres undefined)
    0.4	3	6	-3.3	i
CCCN(C)C[C@H]1Oc2ncc(-c3ccccc3OC)cc2C(=O)N([C@@H](C)CO)C[C@@H]1C
    1.7	2	-1	1.8	i
C[C@@H]1CN([C@H](C)CO)C(=O)Cc2cc(NC(=O)Nc3ccccc3)ccc2O[C@H]1CN(C)Cc1ccc(Cl)c(Cl)c1
    -1.8	7	16	-1.3	i
CCCC(=O)Nc1ccc2c(c1)OC[C@H](C)N(CCC(F)(F)F)C[C@@H](C)[C@H](OC)CN(C)C2=O
    -1.1	-3	-2	0.0	i
COCC(=O)N1CC[C@@H]2[C@H]1c1cc(-c3cccc(C#N)c3)ccc1N[C@@H]2CO
    -1.2	1	-8	-5.7	i
C[C@@H]1CN([C@H](C)CO)C(=O)c2cccc(NC(=O)CCCCCC(=O)Nc3ccccc3N)c2O[C@@H]1CN(C)C(=O)Nc1ccc(C(F)(F)F)cc1
    0.2	-5	3	-2.7	i
O=C(C[C@@H]1C[C@H]2c3cc(NC(=O)Nc4ccccc4)ccc3O[C@H]2[C@H](CO)O1)NCCN1CCCCC1
    20	5	8	-1.5	i
CC(C)c1cc(C(C)C)c(S(=O)(=O)NC(c2ccccn2)C23CC2C3)c(C(C)C)c1 (centres undefined)
    -0.7	-19	-35	14	i
Cc1ccccc1N=C(c1ccccc1)C1C(=O)c2ccccc2C1=O
    13	-21	-28	-6.9	i
CC(=O)N1[C@@H]2c3ccc(C4=CCCC4)c(=O)n3C[C@@H]2[C@@H](CO)[C@@H]1C(=O)NCC1CC1
    2.4	3	6	-4.4	i
O=C(C[C@H]1C[C@H]2c3cc(NS(=O)(=O)c4ccccc4)ccc3O[C@H]2[C@@H](CO)O1)NC1CCCC1
    2.2	-8	-12	-6.3	i
CCN1[C@@H]2c3ccc(-c4ccc(F)cc4)c(=O)n3C[C@@H]2[C@@H](CO)[C@@H]1C(=O)N(C)C
    0.3	1	9	-1.6	i
C[C@H]1CN([C@@H](C)CO)C(=O)Cc2cc(NC(=O)C3CC3)ccc2O[C@@H]1CN(C)Cc1ccc(Oc2ccccc2)cc1
    3.8	-19	-51	11	i
C/C=C/c1ccc([C@H]2[C@@H](CO)N(C(=O)C3CC3)[C@H]2CN(C)C(C)=O)cc1
    -2.7	3	11	0.1	i
CCC(C)C(NC(=O)c1ccccc1)C(=O)N1CCN(C(=O)c2ccccc2)CC1 (centres undefined)
    1.8	13	12	1.5	i
N#CCCN(C(=S)Nc1ccc(Cl)c(Cl)c1)C1CCCCC1
    3.2	-51	-81	-20	i
C[C@@H]1CCCCO[C@@H](CN(C)S(=O)(=O)c2ccc(F)cc2)[C@H](C)CN([C@@H](C)CO)C(=O)c2cc(NC(=O)CCCN(C)C)ccc2O1
    6.7	-2	-5	-2.5	i
Cc1cc(C(=O)Nc2cccc3c2O[C@@H](CN(C)Cc2ccccc2)[C@@H](C)CN([C@H](C)CO)C3=O)n(C)n1
    -0.9	-6	3	-3.6	i
C[C@H]1CCCCO[C@@H](CN(C)C(=O)Nc2cccc3ccccc23)[C@@H](C)CN([C@@H](C)CO)C(=O)c2cc(NC(=O)Cc3ccccc3)ccc2O1
    -3.4	-4	0	1.5	i
CC(C)CCN1CCC(CN2C(=S)NC[C@@H]2Cc2ccccc2)CC1
    0.4	0	11	-3.1	i
C[C@@H]1CN([C@H](C)CO)S(=O)(=O)c2ccc(C3=CCCCC3)cc2O[C@H]1CN(C)C(=O)c1ccc(F)cc1
    8.6	-4	-21	8.2	i
CCCC#Cc1ccc2c(c1)O[C@@H](CN(C)Cc1ccncc1)[C@H](C)CN([C@H](C)CO)S2(=O)=O
    8.5	-36	-59	17	i
O=C(Nc1cccc(Cl)c1)N[C@H]1CC[C@@H](CCNC(=O)C2CCC2)O[C@@H]1CO
    -6.1	-2	2	-1.8	i
CCOc1ccc(NS(=O)(=O)c2ccc(Cl)c(N=Nc3c(O)[nH]c(=S)[nH]c3=O)c2)cc1Br
    1.9	-2	16	0.9	i
COc1ccc(NC(=O)N(C)C[C@@H]2Oc3c(NC(=O)CCCCCC(=O)Nc4ccccc4N)cccc3C(=O)N([C@H](C)CO)C[C@H]2C)cc1
    2.5	-3	1	-1.0	i
C[C@H]1CN([C@@H](C)CO)C(=O)c2c(c3ccccc3n2C)-c2ccccc2CO[C@@H]1CN(C)S(=O)(=O)c1ccc(Cl)cc1
    0.8	2	8	-5.6	i
Cc1ccc(S(=O)(=O)N[C@@H]2C=C[C@H](CC(=O)NCc3ccccc3F)O[C@H]2CO)cc1
    2.2	1	10	-1.1	i
Cc1ccc(-c2ccc([C@H]3[C@@H](CO)N4C(=O)CN(C(=O)c5ccc(F)cc5)C[C@@H]34)cc2)cc1
    1.1	-40	-69	-0.4	+
C[C@@H]1CCCCO[C@@H](CN(C)Cc2ccncc2)[C@@H](C)CN([C@@H](C)CO)C(=O)c2cc(NC(=O)c3ccccc3)ccc2O1
    1.9	0	-7	1.6	i
COc1ccc([C@H]2CC(=O)C[C@@H](CCn3cc(-c4ccc(F)cc4)nn3)O2)cc1
    -0.9	35	9	1.7	i
COc1ccc2c3c(n(C)c2c1)[C@@H](CO)N(C(=O)CN(C)C)CC31CN(C(=O)NC(C)C)C1
    0.0	3	-5	-4.7	i
C[C@H]1CN([C@@H](C)CO)C(=O)CCCn2nncc2CO[C@H]1CN(C)C
    -1.8	2	3	-1.0	i
CCC(=O)N1[C@@H]2c3cccc(=O)n3C[C@H]1[C@H](CO)[C@H]2C(=O)N1CCCCC1
    -0.2	-1	-6	-2.0	i
COCC(=O)N1C[C@@H](C)[C@H](OC)CN(C)C(=O)c2cc(NC(=O)c3cnccn3)ccc2OC[C@@H]1C
    -0.9	-1	-1	-2.1	i
CN(C)c1ccc2c(c1)[C@@H]1C[C@@H](CC(=O)NC3CCCCC3)O[C@@H](CO)[C@@H]1O2
    7.3	-4	-6	2.0	i
COc1cccc(NC(=O)C[C@H]2CC[C@H]3[C@@H](COc4ccc(NC(C)=O)cc4C(=O)N3C)O2)c1
    -1.5	-1	2	-2.1	i
CO[C@H]1CN(C)C(=O)c2cc(NC(=O)c3ccc(F)cc3)ccc2OC[C@@H](C)N(C)C[C@H]1C
    -0.7	1	5	-0.1	i
OC[C@@H]1[C@H](c2ccc(-c3cccnc3)cc2)[C@@H]2CN(CC3CC3)CCCCN12
    ?	5	32	1.0	i
O=C(c1ccncc1)N1C[C@@H]2[C@H](c3ccccc31)[C@H](CO)N2C(=O)c1ccccc1F
    -2.6	4	16	-4.4	i

An excerpt from above with just AF4-AF9 inh.
Structure	AF4-AF9 inh
COc1ccc([C@H]2CC(=O)C[C@@H](CCn3cc(-c4ccc(F)cc4)nn3)O2)cc1	-0.9
Cc1ccc(-c2ccc([C@H]3[C@@H](CO)N4C(=O)CN(C(=O)c5ccc(F)cc5)C[C@@H]34)cc2)cc1	1.1
O=C(c1ccncc1)N1C[C@@H]2[C@H](c3ccccc31)[C@H](CO)N2C(=O)c1ccccc1F	-2.6
COc1cccc(NC(=O)C[C@H]2CC[C@H]3[C@@H](COc4ccc(NC(C)=O)cc4C(=O)N3C)O2)c1	-1.5
Cc1ccc(S(=O)(=O)N[C@@H]2C=C[C@H](CC(=O)NCc3ccccc3F)O[C@H]2CO)cc1	2.2

Source: PubChem (Broad Institute)
